D2 ag: Beta-Arrestin HTS for Positive Allosteric Modulators of the Human D2 Dopamine Receptor: Agonists; DiscoveRx PathHunter D2 beta-arrestin, luminescence, 90 min; 100% = 57 uM dopamine signal; D(2) dopamine receptor (Homo sapiens), P14416; AID 624465, 2012; activation, % (no concentration beside the values); 360,000 tested, 0.084% active; in the data active = activation above about 40%; inconclusive = about 15% to 40%; inactive = below about 15%; also: compound concentration not given in the record; the text of the record calls up to 30% inactive
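DiscoveRx PathHunter D2 beta-arrestin cells (2,100/well) attached overnight, then compound-stimulated 90 min at 37 C in HBSS/10 mM HEPES/0.1% Tween-20 buffer; beta-galactosidase complementation read by luminescence after 1 h at ambient temperature. Dopamine 57 uM final (EC100) as control.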
TRPML1 blocker: qHTS for Inhibitors of the Human Mucolipin Transient Receptor Potential 1 (TRPML1). activity change, negative = inhibition, % (test concentration not listed). TRPML1-inducible cells, Ca2+ dye fluorescence, FDSS; hits give low values; inhibition of EC80 agonist-evoked calcium signal. Mucolipin-1 (Homo sapiens), Q9GZU1. 390,000 tested, 0.02% active. AID 624415, 2012; in the data active means activity change below about -50%; inconclusive means about -30% to -50%; inactive means above about -30%;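 also: stimulus is agonist 54-4 at its EC80 concentration; % is scaled to controls: 0 for no effect and ±100 for the full control effect; compound concentration not given in the record; the text of the record puts the active cut at -80%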
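Tet-induced TRPML1-DL cells loaded with Ca8 no-wash calcium dye were read kinetically on FDSS. Compound addition was followed by EC80 agonist 54-4 (4 uM final); inhibition was read over 110 s.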
PINK1 expr mod: A Quantitative High throughput Screen to Identify Chemical Modulators of PINK1 Expression; 410,000 tested, 0.2% active; Potency, µM (series often up to 76.6 µM), for the others: at the top dose activation (PINK1 increase), actives largely listed as activators; PINK1 immunofluorescence, high-content cytometry, 24 h; active = well fitted activation curve with a large enough effect; inconclusive = small, poorly fitted or top-dose-only effect; inactive = flat fitted curve, though single readings scatter; cell line not stated here;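 also: potency is read from the fitted curve at half-maximal effect; % of control where 0% means no effect; nearly all actives have a fitted effect of over 65% in size; a mitochondrial uncoupler was the plate control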
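Stable cell line treated 24 h with compounds at 5 concentrations (CCCP controls), then fixed and immunostained for PINK1 plus nuclear and cell stains; PINK1 immunofluorescence quantified by laser-scanning microplate cytometry.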
CtBP-E1A inh: qHTS Assay for Inhibitors of the CtBP/E1A Interaction | CtBP / adenovirus E1A interaction (AlphaScreen) | AlphaScreen GST-E1A/His-CtBP binding, 1536-well; hits give low values; control for the full effect not named in the record | activity change, % (test concentration not listed) | 340,000 tested, 0.49% active | AID 651724, 2012; in the data active means activity change below about -65%; inconclusive means about -30% to -65%; inactive means above about -30%; also: % is scaled to controls: 0 for no effect and ±100 for the full control effect; compound concentration not given in the record
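Homogeneous bead-based format: GST-tagged E1A captured on glutathione donor beads, His-tagged CtBP on nickel acceptor beads; compounds precede bead addition by 2 h at 37 °C.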
TRPML1 agonist: qHTS for Agonists of the Human Mucolipin Transient Receptor Potential 1 (TRPML1); activation, % (test concentration not listed); AID 624414, 2012; Mucolipin-1 (Homo sapiens), Q9GZU1; 410,000 tested, 0.12% active; TRPML1-expressing cells, Ca2+ dye fluorescence, FDSS; host cell line not named in the record; reference of the full effect not given here; in the data active = activation above about 50%; inconclusive = about 30% to 50%; inactive = below about 30%; also: 0% is about no effect; the text of the record puts the active cut at 80%
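Cells: TRPML1-DL, 1X Tet inducer, ~16 h at 37 degrees C/5% CO2. Dye: ABD Ca8 no-wash + quencher, 45-90 min RT. Read: 10 s baseline, compound add, 110 s agonist phase; 54-4 EC80 (4uM final), 110 s antagonist phase.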
Six1-Eya2 blk: qHTS Assay for Inhibitors of the Six1/Eya2 Interaction; activity change, % (test concentration not listed); AlphaScreen GST-Six1/His-Eya2 binding, biochemical; hits give low values; control for the full effect not named in the record; 360,000 tested, 0.56% active; Homeobox protein SIX1 (Homo sapiens) + Protein phosphatase EYA2 (Homo sapiens), …; AID 651725, 2012; in the data active = activity change below about -65%; inconclusive = about -30% to -65%; inactive = above about -30%; also: % is scaled to controls: 0 for no effect and ±100 for the full control effect; compound concentration not given in the record
Target sequence (O00167 whole entry, looked up): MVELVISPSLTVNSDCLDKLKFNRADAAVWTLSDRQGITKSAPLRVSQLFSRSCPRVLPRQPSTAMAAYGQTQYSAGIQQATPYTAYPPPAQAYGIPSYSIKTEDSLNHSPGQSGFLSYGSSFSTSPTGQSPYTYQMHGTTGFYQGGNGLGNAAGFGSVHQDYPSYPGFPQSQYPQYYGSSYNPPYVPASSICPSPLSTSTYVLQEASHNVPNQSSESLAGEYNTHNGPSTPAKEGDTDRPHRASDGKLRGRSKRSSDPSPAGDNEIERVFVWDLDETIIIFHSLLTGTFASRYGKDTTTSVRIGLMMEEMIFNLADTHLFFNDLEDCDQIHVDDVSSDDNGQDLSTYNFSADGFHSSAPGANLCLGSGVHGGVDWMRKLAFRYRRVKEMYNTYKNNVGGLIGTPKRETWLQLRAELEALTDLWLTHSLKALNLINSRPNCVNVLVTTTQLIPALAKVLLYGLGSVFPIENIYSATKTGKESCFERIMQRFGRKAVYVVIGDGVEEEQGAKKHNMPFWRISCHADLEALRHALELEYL
Target sequence (Q15475 whole entry, looked up): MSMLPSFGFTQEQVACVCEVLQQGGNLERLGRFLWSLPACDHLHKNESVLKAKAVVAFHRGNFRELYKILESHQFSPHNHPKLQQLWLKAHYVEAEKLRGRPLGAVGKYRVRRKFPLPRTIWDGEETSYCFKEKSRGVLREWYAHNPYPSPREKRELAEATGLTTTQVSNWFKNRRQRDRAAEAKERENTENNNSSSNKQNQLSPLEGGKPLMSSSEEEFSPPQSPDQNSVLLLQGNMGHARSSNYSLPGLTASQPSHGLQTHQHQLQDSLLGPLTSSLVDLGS
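AlphaScreen luminescence read after one hour at 37 °C in darkness. Pin-transferred compounds met GST-Six1 and His-Eya2 protein (5X stock 250 nM/500 nM) plus glutathione donor and Ni-chelate acceptor beads (5X, 50 ug/mL).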
Numbers without * were called inactive; u = inconclusive; x = no result given; [ ] = dose if it differs, or a comment. Compounds as they come; 1% or so of the library scored in one or more.

SMILES	TRPML1 agonist	PINK1 expr mod	TRPML1 blocker	D2 ag	Six1-Eya2 blk	CtBP-E1A inh
O=C(N/N=C/c1ccco1)c1ccc(Br)o1	0.4	1.7%[38.3 µM]	-16	-2.4	-1	2
COc1ccc(NS(=O)(=O)c2cc(NC(=O)c3ccco3)ccc2N2CCCCC2)cc1	1.4	3.1%	6	-1.3	1	2
Cc1ccc(C2=NN(C(=O)CSc3nc4ncc(Cl)cc4[nH]3)C(c3ccco3)C2)cc1 (stereo not given)	0.7	-0.3%	18	-5.7	8	-3
CSc1cccc(NC(=O)COc2ccccc2C)c1	1.3	0.3%	-4	-6.8	4	14
CC(C)CC(NC(=O)COc1ccccc1)C(=O)O (stereo not given)	0.8	-0.7%	8	4.0	6	-3
CCOc1ccccc1N=c1oc2cc(O)ccc2cc1C(=O)NCC1CCCO1 (stereo not given)	2.2	1.3%[38.3 µM]	1	-6.9	0	6
CN1Cc2c(N3CCOCC3)nc(SCc3ccccc3)c(C#N)c2CC1(C)C	0.2	18%[38.3 µM]	-9	-2.9	-18	-1
OCCCC1CCCN(Cc2cn[nH]c2-c2ccc(F)cc2F)C1 (stereo not given)	0.1	-0.3%	-7	-5.1	8	-1
CN(C)S(=O)(=O)c1ccc(NC(=O)CN2CCCCCC2)cc1	0.1	-0.7%	-3	-2.7	-1	5
CC(NC(=S)NCCc1ccccc1)C(c1cccs1)N1CCN(C)CC1 (stereo not given)	0.2	-0.3%	1	-4.4	-2	-12
CCOC(=O)C1=CCN(S(=O)(=O)c2ccccc2F)C1c1ccc(C)cc1 (stereo not given)	2.7	1.6%	-5	-4.3	5	0
CC(=O)n1cc(N(C(=O)CCl)c2ccc(C)cc2)c2ccccc21	0.0	-0.4%	43	-3.2	4	5
CCSc1nnc(NC(=O)CSc2nnc(CNC(=O)c3ccccc3F)o2)s1	0.8	-0.9%	-13	-0.5	-11	-4
CCOC(=O)c1sc(=S)n(Cc2ccccc2)c1N	4.5	4.5%	-10	-4.1	-14	-1
COC(=O)c1ccc(C)c(NS(=O)(=O)c2ccc(C)c([N+](=O)[O-])c2)c1	-0.6	7.3%	6	-1.6	0	3
Cc1c(Cl)cccc1-c1ccc(C(=O)Nc2ccc3oc(-c4cccnc4)nc3c2)o1	-0.6	5.4%	13	x	x	x
Cc1cc(NC(=O)CSc2nc3ccccc3c(=O)n2Cc2ccccc2)no1	0.3	9.2%	12	-4.5	3	4
CSCC[C@H](NC(=O)c1ccco1)c1nnc2ccccn12	0.4	0.6%	5	0.5	2	x
CN(C)S(=O)(=O)c1ccc(C(=O)N2CC(=O)Nc3ccc(Br)cc3C2c2ccc(F)cc2)cc1 (stereo not given)	2.5	-1.5%	-18	x	x	x
Cc1ccc2c(=O)cc(C(=O)NC3CCS(=O)(=O)C3)oc2c1 (stereo not given)	-0.5	-0.9%	10	-0.9	1	x
N#Cc1ccc(OCC(=O)OCC(=O)c2ccccc2)cc1	1.2	4.0%	8	-4.7	1	u
C=CCN1C(=O)c2ccc(C(=O)N3CCN(S(=O)(=O)c4ccccc4Br)CC3)cc2C1=O	0.6	-2.2%	7	0.8	0	-1
Cc1cc(=O)oc2cc(OCc3ccc(C(=O)OCC(=O)N(C)C4CCS(=O)(=O)C4)cc3)ccc12 (stereo not given)	0.7	0.0%	-3	-2.0	-1	0
Cc1ccc2cc(CCNC(=O)c3c(-c4ccccc4Cl)noc3C)c(=O)[nH]c2c1	-1.1	0.5%	-7	2.8	-17	-2
O=C1CCCC(O)=C1C1C2=C(CCCC2=O)Oc2ccccc21 (stereo not given)	-0.6	-1.4%	6	-2.2	-2	1
COc1ccc(OC)c(CCNC(=O)Cn2nc(C)c3c(C)n(-c4ccc(C)cc4)nc3c2=O)c1	0.4	0.8%	-8	1.9	-9	-11
Cc1cc(OCC(=O)NCCN2CCOCC2)c2c(C)c(C)c(=O)oc2c1	-1.2	-0.1%	4	-2.2	3	-11
CCC(Sc1nc(C)cc(=O)[nH]1)C(=O)Nc1nnc(C)s1 (stereo not given)	-0.4	1.9%	u	-1.5	6	8
COCCn1nnnc1CN1C2CCCC1CC(NC(C)=O)C2 (stereo not given)	0.6	-1.4%	23	-1.4	-4	-5
CN(C)c1ccc(C=NNC(=S)Nc2ccc(F)cc2)cc1	3.2	3.3%	11	0.8	-20	-24

The list goes on; it opens with the 2 that closed the last part.
SMILES	TRPML1 agonist	PINK1 expr mod	TRPML1 blocker	D2 ag	Six1-Eya2 blk	CtBP-E1A inh
COCCn1nnnc1CN1C2CCCC1CC(NC(C)=O)C2 (stereo not given)	0.6	-1.4%	23	-1.4	-4	-5
CN(C)c1ccc(C=NNC(=S)Nc2ccc(F)cc2)cc1	3.2	3.3%	11	0.8	-20	-24
COc1ccc(C(c2c(N)[nH]c(=S)[nH]c2=O)c2c(N)[nH]c(=S)[nH]c2=O)cc1	0.3	0.5%	-13	4.4	2	x
Cc1ccc(F)c(N=Cc2c(O)c3ccccc3oc2=O)c1	x	0.0%	x	-0.1	-1	x
CCN1CCCC1CNC(=O)C(=O)Nc1cccc(OC)c1 (stereo not given)	0.9	0.2%	6	0.4	6	10
O=C(COc1ccccc1)Nc1ccc2c(c1)Cc1cc(NC(=O)COc3ccccc3)ccc1-2	-0.3	1.9%	12	-3.1	12	-9
CN(Cc1ccccc1)C(CNS(=O)(=O)c1ccccc1)c1ccccc1 (stereo not given)	2.8	14%	24	-0.7	0	2
Cc1ccc(NC(=O)c2ccc(NCCc3ccccc3)c([N+](=O)[O-])c2)cc1F	-0.4	u	10	-0.8	-10	6
CCCn1c2c(c(O)c(C(=O)Nc3ncccc3O)c1=O)CCCC2	0.7	0.5%	-17	5.2	13	-2
O=C(Cn1c(-c2cccs2)cc2ccccc21)NCCCN1CCN(c2ccccc2F)CC1	-0.1	1.3%	11	x	x	x
C[C@H](CO)N1C[C@H](C)[C@@H](CN(C)Cc2ccc(Cl)c(Cl)c2)Oc2c(NC(=O)CCC(F)(F)F)cccc2C1=O	-0.7	-0.6%	-7	7.3	-7	-4
O=C(Nc1ccc(F)c(Cl)c1)N1CCC2(CC1)Oc1ccccc1C(=O)N2Cc1ccccc1F	0.1	0.6%	-8	x	x	x
CC(C)c1ccc(NC(=O)c2cn(C3CCCC3)c(=O)c3c2c2ccccc2n3C)cc1	0.4	0.1%	-1	x	x	x
Cc1cccc(CN2C(=O)c3ccccc3S(=O)(=O)c3ccc(C(=O)N4CCCC4)cc32)c1	0.2	-0.3%	15	x	x	x
COc1ccc(CCNC(=O)c2c(Cl)ccc(Cl)c2OC)cc1OC	-0.8	-0.7%	-5	-1.6	0	1
Cc1ccc(C(=O)CN(CCCC(N)=O)C(=O)c2ccncc2)cc1	-0.3	0.0%	-13	-1.0	10	-1
CCOC(=O)C1CCCN(S(=O)(=O)c2csc(C(N)=O)c2)C1 (stereo not given)	-0.2	1.9%	1	x	x	x
NC1=NC(=O)C(Cc2cccc(Cl)c2)S1 (stereo not given)	0.0	-1.1%	0	-4.1	-7	2
O=C(CSc1ccc(-c2ccccn2)nn1)N1CCCC1	-1.0	1.1%	8	-1.6	-92*	5
CCOc1ccc(-c2c(C)nn3c(C)c(C(=O)NCc4cccc(OC)c4)cnc23)cc1OCC	2.9	3.3%	6	x	x	x
Cc1cc(Nc2cccc(Cl)c2)n2ncnc2n1	0.1	2.8%	48	-3.2	-1	-1
Nn1c(-c2ccccc2)cc(-c2ccccc2)cc1=O	-0.4	0.4%	14	-3.1	11	-16
c1ccc(Nc2scc(-c3ccccc3)[n+]2Cc2ccco2)cc1	-0.2	8.2%	-7	-2.1	-23	x
Cc1cccc(CSc2nnc(NC(=O)CSc3nnc(C)s3)s2)c1	0.3	0.8%	3	-1.5	-1	-7
CCOC(CC(=O)NNC(=O)c1c(-c2c(Cl)cccc2Cl)noc1C)OCC	-0.7	2.7%	4	-6.6	0	-14
O=Cc1cccc(Oc2ccc([N+](=O)[O-])cc2[N+](=O)[O-])c1	-0.3	8.3%	24	-0.3	-8	14
COC(=O)C1=Cc2cc(OC)cc([N+](=O)[O-])c2OC1N1CCOCC1 (stereo not given)	x	1.4%	x	3.1	-3	x
COc1ccc(/C=C2\SC(=S)N(CCC(=O)Nc3cccc(O)c3)C2=O)cc1OC	-0.4	1.8%	7	3.7	-12	-2
CCN(CC)c1ccc(C(=O)NCc2ccc3c(c2)CCN3C(=O)c2ccccc2)cc1	1.1	3.6%	-5	x	x	x
COc1cc(C2c3[nH]c4ccccc4c3C[C@H]3C(=O)N(C4CC4)CC(=O)N23)ccc1OC(C)C (stereo not given in full)	0.8	10%	27	-0.5	-8	-3
CC1CC(C(F)(F)F)n2nc(C(=O)O)cc2N1 (stereo not given)	-0.5	-0.8%	-4	-0.6	1	5
COc1cccc(-c2csc(NC(=O)Oc3ccccc3)n2)c1	-0.2	x	-12	-2.8	-11	-8
CCn1c(=O)cc(OCC(=O)Nc2ccccc2C#N)c2ccccc21	0.7	1.9%	-2	6.2	-18	-17
COc1ccc(NC(=O)Oc2ccccc2)cc1Cl	-0.8	-0.9%	-19	1.5	3	3
O=C(CCc1c[nH]c2ccccc12)N1CCN(S(=O)(=O)c2ccc([N+](=O)[O-])cc2)CC1	-1.0	0.2%	-4	9.1	-21	-3
Cc1ccc(S(=O)(=O)N2C[C@H]3C(=O)C[C@@H](c4ccccc4)N(S(=O)(=O)c4ccc(C)cc4)[C@H]3C[C@H]2c2cccs2)cc1	-0.1	1.8%	3	-5.7	6	-1
Cc1[nH]n(-c2ccccc2)c(=O)c1N=Nc1ccccc1	1.3	9.8%	61	-6.2	u	-27
Cc1nnc(-c2cccc(Br)c2)c2cn(-c3ccc(Br)cc3)nc12	0.8	2.9%	0	-0.7	u	u
CCCCc1ccc(NC(=O)C(=O)NCCN2CCN(C(=O)c3ccc([N+](=O)[O-])cc3)CC2)cc1	-0.4	-0.3%	2	-4.0	8	1
COc1ccc(C2CC(c3ccccc3)=NN2C(=O)COC(=O)c2cccc(N)c2)cc1 (stereo not given)	0.3	0.0%	31	6.0	-18	x
